# Resorufin fluor = compounds fluorescent in resorufin spectral region | 59,000 compounds, 0.04% hits | Compound fluorescence, resorufin region 547/598 nm, buffer; active compounds read high | max dye-equivalent concentration, M | AID 588; active = above 10 nM dye equivalent; inconclusive = 1 to 10 nM; inactive = 1 nM or less; a few of its hits are not listed in these tables; further: highest value over a series up to 38 µM
#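 Read-out: intrinsic compound fluorescence at ex 547/em 598 nm after 15 min at RT in pH 8.0 Tris (100 mM). Values expressed as resorufin-equivalent concentration from per-plate standard series.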
# A488 fluor = A488 region autofluorescence; 59,000 compounds, 0.1% hits; compound autofluorescence, A488 spectral region, dye equivalency; active compounds read high; max dye equivalency, M; active = above 10 nM dye equivalent; inconclusive = 1 to 10 nM; inactive = 1 nM or less; about half of its hits are not listed in these tables;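 further: highest value over a series up to 38 µM; compound alone in buffer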
#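 Readout is A488 dye-equivalent concentration, calibrated by a per-plate six-point Alexa 488 series. Compounds in 100 mM Tris buffer pH 8.0 were incubated 15 min at room temperature. Plates were imaged using 480 nm excitation/540 nm emission filters.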
# AID923 = qHTS Assay for Allosteric/Competitive Inhibitors of Caspase-1: Spectroscopic Profiling in AFC Spectral Region; 75,000 compounds, 1.1% hits; compound fluorescence, AFC spectral region (405/520 nm); almost no hit is shown here; Potency, µM (highest dose often 57.5 µM), without a hit: at the highest dose fluorescence increase, actives largely listed as activators; AID 923, 2007; active means well fitted activation curve with a large enough effect; inconclusive means small, poorly fitted or top-dose-only effect;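 further: potency means the concentration at half of the fitted maximal effect; 0% is about no effect; scaled to a free AFC standard on each plate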
#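 Baseline compound fluorescence (AFC region, 405 nm ex/520 nm em) taken from the intercept of kinetic reads with 50 nM caspase-1 and 5 uM Ac-WEHD-AFC; normalized to an on-plate AFC standard curve; compounds titrated up to 57 uM.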
# TSHR agonist = activates the human thyroid stimulating hormone receptor. Potency, µM (top dose mostly 57.1 µM), for inactives: top-dose activation, most hits filed as activators. 73,000 compounds, 0.48% hits. P16473. HEK293-CNG-TSHR cells (CNG channel as cAMP sensor), membrane potential dye, cAMP; active = well fitted activation curve of enough size with the parental cells flat; inconclusive = any curve in the parental cells; inactive = parental cells flat and receptor cells flat or falling; further: potency means the concentration at half of the fitted maximal effect; % of control where 0% means no effect; weak receptor curves with flat parental cells got no call and are not listed
# Target sequence (P16473 whole entry, looked up): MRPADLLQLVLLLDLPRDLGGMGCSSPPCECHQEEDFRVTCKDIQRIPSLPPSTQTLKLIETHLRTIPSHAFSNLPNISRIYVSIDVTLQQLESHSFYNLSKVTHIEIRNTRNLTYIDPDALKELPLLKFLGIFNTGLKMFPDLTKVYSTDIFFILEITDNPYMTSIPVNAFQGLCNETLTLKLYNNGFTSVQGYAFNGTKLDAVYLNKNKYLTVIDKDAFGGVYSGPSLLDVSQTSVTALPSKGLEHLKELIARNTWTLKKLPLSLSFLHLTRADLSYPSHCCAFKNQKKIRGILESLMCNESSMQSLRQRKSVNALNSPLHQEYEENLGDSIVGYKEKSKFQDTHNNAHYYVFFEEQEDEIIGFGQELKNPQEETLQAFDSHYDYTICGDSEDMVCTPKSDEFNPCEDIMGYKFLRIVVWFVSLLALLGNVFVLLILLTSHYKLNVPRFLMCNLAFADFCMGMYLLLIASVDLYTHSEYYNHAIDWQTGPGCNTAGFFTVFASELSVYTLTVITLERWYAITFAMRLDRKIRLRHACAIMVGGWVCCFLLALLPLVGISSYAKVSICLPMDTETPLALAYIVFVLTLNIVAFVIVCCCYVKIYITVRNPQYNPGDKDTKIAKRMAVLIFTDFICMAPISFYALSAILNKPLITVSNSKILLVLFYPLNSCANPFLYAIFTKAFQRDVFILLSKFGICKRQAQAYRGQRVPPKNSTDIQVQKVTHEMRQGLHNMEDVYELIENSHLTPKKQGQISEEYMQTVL
#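 HEK 293 cells stably expressing TSHR and a cAMP-gated CNG channel; parental CNG-only cells as counterscreen. Cells preloaded 60 min with membrane potential dye plus 100 uM RO 20-1724, then compound 30 min; fluorescence read at 590 nm.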
# A647 autofl = compound autofluorescence in A647 spectral region; Compound fluorescence, A647 channel (570/671 nm), Tris buffer; max dye-equivalent concentration, M; 59,000 tested, under 10 active; AID 592; active means above 1 µM dye equivalent; inconclusive means 0.1 to 1 µM; inactive means 0.1 µM or less;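 further: values scaled relative to a standard on each plate; highest value over a series up to 38 µM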
#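 Fluorescence read (570 nm ex, 671 nm em) after 15 min RT incubation of compounds in 100 mM Tris buffer, pH 8.0; values expressed as dye-equivalent concentration against a six-point A647 standard series on each plate.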
# An asterisk follows results filed as active; i = inactive; ? = inconclusive; nt = not tested or not shown; [ ] = dose if it differs, or a comment. Not all compounds are listed. The share of hits here may be higher or lower than overall.
# Every second line gives: Resorufin fluor	A488 fluor	AID923	TSHR agonist	A647 autofl
> COc1ccc(OC)c(NC(=O)c2cc(-c3ccc(C)cc3O)n[nH]2)c1
    i	i	1.3%	13%	1e-09
> COc1ccccc1NC(=O)C1=C(C)NC2=C(C(=O)CCC2)C1c1ccc(C)o1 (centres undefined)
    i	i	0.6%	3%	2.8e-09
> CCCS(=O)(=O)N1CCC(C(=O)N2CCC(Cc3ccccc3)CC2)CC1
    i	i	0.2%	3%	1.9e-08
> N#CC1=C(N)NC(SCc2ccc(F)cc2)=C(C#N)C12CCCCC2
    i	i	nt	nt	6.7e-08
> CCCC/C=C/C(NC(=O)c1cccs1)c1ccccc1 (centres undefined)
    nt	nt	1.2%	?	nt
> CC(=O)N1[C@H](Cc2ccccc2)C=C[C@]1(C)C(=O)NCc1ccccn1
    nt	nt	0.1%	2%	nt
> CC(C)CC(OC(=O)c1ccco1)C(=O)NCC1CCCO1 (centres undefined)
    i	i	0.0%	2%	6.2e-09
> CCOc1ccccc1CN(CCc1ccc2c(c1)OCO2)Cc1ccccn1
    nt	nt	-0.6%	?	nt
> c1cc(-c2noc(CC3CCCCC3)n2)ccn1
    i	i	0.2%	?	2.9e-08
> COCCCNC(=O)c1cccc(OC)c1OC
    i	i	-1.4%	5%	1e-09
> COc1ccc(-c2cn3c(C)c(C(=O)NCCN4CCOCC4)sc3n2)cc1
    i	i	0.9%	5%	1.7e-08
> CN(C)Cc1cc(C(C)(C)C)cc(CNC2CCCCC2)c1O
    i	i	-0.2%[11.5 µM]	?	1.9e-09
> COc1ccc(-n2c(=O)c(-c3cn(C)c4ccccc34)nc3cnc(OC)nc32)cc1
    i	i	11%	-5%	2.2e-09
> CCOC(=O)N1CCN(C(=O)c2ccc3nc4cc(Cl)ccc4c(=O)n3c2)CC1
    i	i	7.8%	9%[11.4 µM]	4.3e-09
> Cc1ccc2c(c1)N(CC(=O)NCCc1c[nH]c3ccccc13)C(=O)CO2
    i	i	0.2%	12%	1.8e-09
> COc1cc(/C=C(\C#N)C(N)=O)cc(CSc2nc3ccccc3s2)c1O
    nt	nt	-0.6%	10%	nt
> Cc1ccc(NC(=O)Cc2cn3ccsc3n2)nc1
    i	i	0.0%	-2%	1.5e-08
> O=C(CN1C(=O)c2ccccc2S1(=O)=O)NCCSCc1ccco1
    i	i	nt	nt	1e-09
> CC1(C)CC2CC(C)(CN2C(=O)c2cccs2)C1 (centres undefined)
    i	i	-1.9%	46%	9e-09
> O=CNc1ccccc1Oc1ccccc1
    nt	nt	-3.2%	?	nt
> O=C(CSc1ncnc2sc3c(c12)CCCC3)c1ccco1
    i	i	-0.2%	?	1.8e-09
> COc1ccc(S(=O)(=O)N(Cc2ccccc2)Cc2nc(-c3ccccc3)no2)cc1
    i	i	2.9%	nt	1e-09
> O=C(NCc1ccccc1)C(c1cccnc1)N(Cc1ccco1)C(=O)c1ccccn1 (centres undefined)
    i	i	0.7%	-1%	1e-09
> O=C(c1cnc2ccccn2c1=O)N1CCCc2ccccc21
    nt	nt	-1.7%	?	nt
> NC1=C2NC=N[C@@H]2N(C/C=C\c2ccccc2)C=N1
    i	i	-0.8%[11.5 µM]	-2%[11.4 µM]	1.3e-08
> CC(OC(=O)c1cccc(NS(C)(=O)=O)c1)C(=O)Nc1ccc(N2CCOCC2)cc1 (centres undefined)
    i	i	-0.2%	-3%	3.2e-08
> CCOc1ccc(NC(=O)C/C(N)=N/O)cc1
    i	i	1.1%	-2%	1.1e-09
> CCCOn1c(OCC(C)C)nc2ccccc2c1=O
    i	i	-1.4%	nt	5.6e-09
> CC1CCCCN1CCNC(=O)c1ccc2c(=O)n(CCc3ccccc3)c(=O)[nH]c2c1 (centres undefined)
    i	i	1.7%	-3%	1.4e-08
> O=C(CSc1ncnc2nc[nH]c12)N1CCN(c2ccccc2)CC1
    i	i	-0.8%	14%	7.4e-09
> Cc1c(-c2ccccc2)nc(N)c(C#N)c1-c1ccco1
    i	i	16%	1%	1e-09
> Cc1ccc(OCC(=O)O)c(-n2nc3ccccc3n2)c1
    nt	nt	-1.1%	6%	nt
> Cc1ccc(-c2nnc3c4ccccc4c(C)nn23)cc1S(=O)(=O)N1CCN(CCO)CC1
    i	i	2.0%	?	3.5e-09
> O=C1[C@H]2[C@H]3[C@H](O)[C@H](O)C/C(=N/OCc4ccccc4)[C@@H]3CC[C@@H]2C(=O)N1c1cccc(Oc2ccccc2)c1
    nt	nt	1.6%[11.5 µM]	?	nt
> CCOC(=O)C1CCCN(C(=O)CN(c2ccc(OC)cc2)S(=O)(=O)c2c(C)noc2C)C1 (centres undefined)
    nt	nt	-1.8%	6%	nt
> CCc1ccccc1N(CC(=O)N1CCN(c2ccccc2F)CC1)S(C)(=O)=O
    i	i	1.4%	14%	1e-09
> Cn1c(=O)cc(OCC(=O)NCCCN2CCN(c3ccccc3F)CC2)c2ccccc21
    i	i	-0.2%	-3%[11.4 µM]	1e-09
> CCOc1ccc(C2CC(c3ccc(CC)cc3)Nc3nc(N)nn32)cc1 (centres undefined)
    nt	nt	1.6%	4%	nt
> O=C(CCc1nc2ccccc2c(=O)[nH]1)NC1CCN(Cc2ccccc2)CC1
    i	i	-3.4%	2%	1e-09
> O=C(c1cc(C(F)(F)F)cc(C(F)(F)F)c1)N1CCC2(CCCN(c3ncccn3)C2)CC1
    i	i	1.2%	?	1e-09
> CCOC(=O)c1c(NC(=O)c2cc(C3CC3)on2)sc(C(C)=O)c1C
    nt	nt	0.7%	?	nt
> CN(C)CCC(c1ccc(Cl)cc1)c1ccccn1 (centres undefined)
    nt	nt	2.5%	9%	nt
> CC(=O)N1CCc2[nH]c3ccccc3c2C1
    i	i	7.3%	-7%	4.2e-09
> O=C(NCc1cccnc1)c1ccc2c(=O)n(CCCN3CCCC3=O)c(=S)[nH]c2c1
    i	i	0.4%	nt	1e-09
> CCOCCCNC(=O)c1cc2c(-c3ccc(Cl)cc3)nn(C)c2s1
    nt	nt	1.4%	9%	nt
> CC(=O)c1oc2ccccc2c1N
    i	i	0.7%	2%	1e-09
> O=C(Cn1ncn2cccc2c1=O)N1CCCCC1
    nt	nt	0.2%	-2%	nt
> CSc1nc2[nH]c3c(c2c2ncnn12)CCCC3
    i	i	nt	nt	2.8e-08
> O=C1C2C3C=CC(C3)C2C(=O)N1c1ccccc1 (centres undefined)
    nt	nt	1.4%	0%	nt
> CC(CO)(CO)Nc1ncnc2ccccc12
    i	i	-4.0%[11.5 µM]	-2%[11.4 µM]	3.2e-08
> COc1cccc2c1[C@@H]1CN(CCCCn3c(=O)[nH]c4c(sc5ncc(-c6ccccc6)nc54)c3=O)C[C@H]1CO2
    i	i	-0.2%	?	1.8e-09
> Cc1ccccc1-c1nc(Cc2ccccc2)no1
    nt	nt	3.4%	17%	nt
> COc1ccc(C2CC(=O)c3cnc(N)nc3C2)c(OC)c1 (centres undefined)
    i	i	1.7%	6%	3.2e-08
> CCOC(=O)N1CCN(S(=O)(=O)c2ccc(F)c(C(=O)Nc3cc(C)cc(C)c3)c2)CC1
    i	i	0.1%	19%	1e-09
> O=C1CC(N2CCC(c3nc4ccccc4o3)CC2)C(=O)N1c1ccc(Cl)c(C(F)(F)F)c1 (centres undefined)
    i	i	0.4%	1%	1e-09
> O=C(COC(=O)c1n[nH]c2ccccc12)NC(=O)NC1CCCCC1
    i	i	-2.9%	-4%	1e-09
> CCOC(=O)c1ccc(-n2c(=S)sc3c(=O)[nH]c(C)nc32)cc1
    i	i	0.5%	3%	2.4e-08
> O=C(CSc1nccn1-c1ccc(Cl)cc1)Nc1ccc2c(c1)OCO2
    i	i	1.8%	19%	1.2e-08
> COC(=O)CSc1nnc(-c2cccnc2)n1-c1cc(OC)cc(OC)c1
    i	i	-0.7%	13%	1.6e-08
> COc1ccc(-n2c(=O)c(-c3ccc(F)cc3)nc3cncnc32)cc1
    i	i	5.5%	0%	6e-09

# Following part
# Every second line gives: Resorufin fluor	A488 fluor	AID923	TSHR agonist	A647 autofl
> CC(=O)Nc1nonc1-c1nc2ccccc2n1Cc1ccccn1
    i	i	2.1%	2%[11.4 µM]	1e-09
> CNC(=O)CN(C#N)c1nc(N(C)C)nc(N(C)C)n1
    i	i	-1.9%	-5%	3.3e-08
> Cc1cc2c(c(=O)n1C1CC1)C(c1cccc(Cl)c1)C(C#N)=C(N)O2 (centres undefined)
    i	i	-1.3%	?	6.6e-09
> COC(=O)c1c(N)c2ccccc2[nH]c1=O
    i	i	-0.9%	2%	2.3e-08
> COC(=O)c1sccc1NC(=O)c1cc(C)on1
    i	i	1.2%	15%	1e-09
> COc1ccc(OCCOC(=O)c2cccs2)cc1
    i	i	-0.8%	6%	5.5e-09
> O=c1[nH]c2ccc(Cl)cc2c(-c2ccccc2)c1CN1CCOCC1
    i	i	-0.6%	-6%	3.3e-08
> Fc1ccc(CN2CCCCCCC2)c(F)c1
    nt	nt	2.2%	18%[11.4 µM]	nt
> Cc1cc(C)n(-c2ccc(OCC(=O)O)nn2)n1
    i	i	1.0%	nt	8e-09
> COC(=O)C1=C(NC(=O)c2cccc(C)c2)CCS1
    i	i	9.6%	0%	1.5e-08
> CCC(C)(NC(=O)c1ccccn1)C(=O)NC1CCCCC1 (centres undefined)
    i	i	-0.7%	3%	7.9e-09
> CCS(=O)(=O)c1ccc(O)c(NC(=O)Nc2ccccc2)c1
    i	i	-1.1%	-4%	1e-09
> O=C(Cn1cnc2c(nnn2Cc2ccc(Cl)cc2)c1=O)OCc1ccccc1
    i	i	0.5%	?	1e-09
> COC(=O)NC1CSCC1OC(=O)CN1C(=O)c2ccccc2C1=O (centres undefined)
    i	i	-0.4%	-1%	2.7e-08
> O=C(O)c1ccc(CSc2ncn[nH]2)cc1
    i	i	-2.6%	1%	1e-09
> C[C@@H](O)[C@H]1C(=O)N2C(C(=O)O)=C(S[C@@H]3CN[C@H](C(=O)N(C)C)C3)[C@H](C)[C@H]12
    i	i	0.6%[25.7 µM]	2%[25.6 µM]	1.8e-08
> c1ccc(SCCSc2ccccc2)cc1
    nt	nt	1.0%	10%	nt
> CC(C)OC(=O)c1cn(-c2ccccc2)nc1-c1ccco1
    i	i	-0.6%	25µM*	4.7e-08
> O=C(O)C1C2C=CC(O2)C1C(=O)Nc1ccc(S(=O)(=O)N2CCc3ccccc32)cc1 (centres undefined)
    i	i	-4.6%	0%	9.9e-09
> COC(=O)Cn1c2c(c3cc(C)ccc31)CCCC2
    i	i	-1.2%	29%	2.9e-08
> CCOc1c(C(N)=O)c(-c2ccccc2)c2c(=O)[nH]c3ccccc3n12
    i	i	0.6%	?	3.2e-08
> CCCOc1ccc(-c2nnc(N)s2)cc1
    i	i	nt	nt	1.9e-08
> Cc1nnc(Nc2ccc(C(=O)NCCO)cc2)c2ccccc12
    i	i	-1.0%	-3%	6.4e-09
> Cn1c(CSc2ccccc2)c(C#N)c2ccccc21
    i	i	-1.7%	?	4.9e-09
> CCN(CC)S(=O)(=O)c1cc(C(=O)Nc2ccc(Cl)cn2)ccc1C
    nt	nt	-2.1%	?	nt
> COc1ccccc1OCC(=O)NCC1CCCCC1
    i	i	-0.8%	1%[11.4 µM]	3.7e-08

# Some entries already given, reduced to A488 fluor:
molecule | A488 fluor
CCCOc1ccc(-c2nnc(N)s2)cc1 | i
Cc1nnc(Nc2ccc(C(=O)NCCO)cc2)c2ccccc12 | i
Cn1c(CSc2ccccc2)c(C#N)c2ccccc21 | i

# Bioassay records (PubChem BioAssay)
